Compound activity from PubChem BioAssay.
Choline anaer gr: blocks anaerobic gram-negative growth on choline. Gram-negative bacterium anaerobic choline minimal medium, absorbance growth; active compounds read low; many inactives read as strong as hits in the columns shown. calls only. hit rate 0.2% among 55,000. AID 1963822;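 active = growth z-score on choline under -2 at 7 or 20 h with little or no fall on glycerol, limits in tiers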;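 note: stock transfer was 300 nL into about 50 µL; the organism is E. coli; final concentration not given here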
Choline anaer gr early: further read-out of Choline anaer gr, marked with its call; z-score; measured here: choline growth z-score, timepoint 1;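 score of optical density at 7 h as mean of two plates; lower means less growth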
Active calls of the source: *; i = inactive. Not all compounds are listed (hit frequency here may not be typical).

# | Structure | Choline anaer gr | Choline anaer gr early
1 | COCC(=O)N1CCC(N(Cc2csc(-c3cccs3)n2)S(C)(=O)=O)CC1 | i | -0.1
2 | CCC(=O)OCc1cnc(C)c2oc(=O)c(C(=O)Nc3ccccc3OC)cc12 | i | -0.62
3 | CC(NC(=O)C1CCCN1S(=O)(=O)c1cccc2cccnc12)c1ccccc1 (stereo unspecified) | i | 0.18
4 | CC1CCCCN1CCNC(=O)C1CCCN(c2ccc(-c3ccccc3)nn2)C1 (stereo unspecified) | i | -0.17
5 | CC(C)NC(=O)N1CCCC(c2cccc(C(=O)NC(C)c3ccccc3)c2)C1 (stereo unspecified) | i | 0.74
6 | CC(C)c1nnc(-c2coc(S(=O)(=O)N3CCCCC3C)c2)o1 (stereo unspecified) | i | -0.36
7 | Cc1noc(C)c1C1CCCN1Cc1cn[nH]c1-c1cccc(Br)c1 (stereo unspecified) | i | -1
8 | O=C(Nc1cccc(Cl)c1)C1CCCN(c2ncnc3c2nc2n3CCCCC2)C1 (stereo unspecified) | i | 0.36

Entries listed so far that have a halogen (two):
# | Structure | Choline anaer gr | Choline anaer gr early
7 | Cc1noc(C)c1C1CCCN1Cc1cn[nH]c1-c1cccc(Br)c1 (stereo unspecified) | i | -1
8 | O=C(Nc1cccc(Cl)c1)C1CCCN(c2ncnc3c2nc2n3CCCCC2)C1 (stereo unspecified) | i | 0.36

(listing goes on)
# | Structure | Choline anaer gr | Choline anaer gr early
9 | Cc1nc2sccn2c(=O)c1S(=O)(=O)NC1CCCCC1 | i | -1.7
10 | Cc1ccc(C)c(Cn2nnc3c(=O)[nH]c(C4CCCN(C(=O)Cc5ccccc5C)C4)nc32)c1 (stereo unspecified) | i | 0.25
11 | CC(C)CNC(=O)c1cccc(Oc2ccnc(-c3ccc(F)cc3)n2)c1 | i | 1.9
12 | Cn1c(=O)c2ccc(C(=O)NC3CCCCC3)cc2n2c(SCC(=O)NC3CCCCC3)nnc12 | i | -0.84
13 | Fc1cccc(Nc2nc(NCC3CCCO3)nc3c2cnn3-c2ccccc2)c1 (stereo unspecified) | i | 1.2
14 | Cc1ccc(-c2csc3c2ncn2c(=O)n(CC(=O)Nc4cc(C)cc(C)c4)nc32)cc1 | i | -0.94
15 | CCOC(=O)c1cnn2c(-c3ccc4c(c3)OCO4)ccnc12 | i | 0.88
16 | CC(C)Cc1ccc(S(=O)(=O)Nc2ccc3nncn3n2)cc1 | i | -0.67

Compound profiles (already shown):
`CC(C)Cc1ccc(S(=O)(=O)Nc2ccc3nncn3n2)cc1` as listed: Choline anaer gr = i; Choline anaer gr early = -0.67
`Cn1c(=O)c2ccc(C(=O)NC3CCCCC3)cc2n2c(SCC(=O)NC3CCCCC3)nnc12` as listed: Choline anaer gr = i; Choline anaer gr early = -0.84
`Cc1nc2sccn2c(=O)c1S(=O)(=O)NC1CCCCC1` as listed: Choline anaer gr = i; Choline anaer gr early = -1.7

Further results:
# | Structure | Choline anaer gr | Choline anaer gr early
17 | COC(=O)c1nc2ccccc2nc1N1CCN(c2ccc(F)cc2)CC1 | i | 0.66
18 | CC(C)C(=O)N1CCc2c(c(C(=O)NCc3ccccc3)nn2C)C1 | i | -0.88
19 | O=c1oc2cc(S(=O)(=O)N3CCOCC3)ccc2n1Cc1noc(C2CCC2)n1 | i | 0.1
20 | O=C(Nc1ccc(F)cc1F)N1CCC(n2cnc3cc(Cl)ccc3c2=O)CC1 | i | 0.24
21 | Cc1ccc2oc(=O)c3cnn(CC(=O)Nc4cc(-c5cccc(Cl)c5)no4)c3c2c1 | i | -1.2
22 | O=S(=O)(NCCc1n[nH]c(Cc2cccc(F)c2)n1)c1cccc(F)c1 | i | -1.1
23 | O=C(NCC1CCCO1)c1ccc(-n2nc(OCc3ccc(Cl)cc3)ccc2=O)cc1 (stereo unspecified) | i | 0.43
24 | COC(=O)c1sccc1NC(=O)NC1CCN(c2nc3ccccc3n(CC(C)C)c2=O)CC1 | i | 1.6
25 | CCc1cc(=O)n2[nH]c(NCc3cccc(C)c3)nc2n1 | i | 0.02
26 | Cc1nc(CNC(=O)c2coc(C3CC3)n2)no1 | i | 0.35
27 | Cc1ccc(N(CC(=O)Nc2ccc(Cl)cn2)S(=O)(=O)c2c(C)nn(C)c2C)cc1 | i | -0.83
28 | Cc1cc2c(cc1C)C(c1ccncc1)CC(=O)N2 (stereo unspecified) | i | -0.25
29 | O=C(Nc1cccc(-c2ccc3ccccc3n2)c1)c1ccccc1 | i | 1.2
30 | COc1ccc(C(CNC(=O)COc2ccc(F)cc2)N2CCCCC2)cc1 (stereo unspecified) | i | -0.19
31 | Cc1cc(F)ccc1NS(=O)(=O)c1cc(-c2n[nH]c(=O)c3c2CCCC3)ccc1C | i | -0.05
32 | Nc1nc(-c2ccc(Cl)c(Cl)c2)c(-c2ccncc2)s1 | i | 0.96
33 | Cc1cc(C)cc(-n2c(-c3ccc(Cl)cc3)cn3c4c(=O)n(C)c(=O)n(C)c4nc23)c1 | i | 0.68
34 | Cc1ccc(-c2csc(N)n2)cc1C | i | -0.08
35 | COc1cc2c(=O)n(Cc3ccc(C(=O)NC4CC4)cc3)c(=O)n(Cc3cccc(Cl)c3)c2cc1OC | i | 0.37
36 | CCOC(=O)c1cc2n(n1)CC(C)(C(=O)NCCC(C)C)N(c1cccc(C)c1C)C2=O (stereo unspecified) | i | -0.75
37 | O=S1(=O)N=CNc2ccc(S(=O)(=O)Nc3ccccc3)cc21 | i | -0.38
38 | COc1cccc(NC(=O)CCc2c(C)nn3cnnc3c2C)c1 | i | -0.57
39 | CCc1ccccc1Nc1nnc(C)c(=O)[nH]1 | i | -0.19
40 | CCNc1cc(C)nc(N2CCN(C(=O)C(C)C)CC2)n1 | i | 0.07
41 | Cc1cc(C2CCCN2C(=O)Nc2ccc(Br)cc2F)no1 (stereo unspecified) | i | -1.5
42 | COc1cc(S(=O)(=O)Nc2ccc(Nc3cc(N(C)C)nc(C)n3)cc2)c(C)cc1C | i | 0.22
43 | CCOC(=O)c1c(S(=O)(=O)NCC(=O)N2CCCC2)c(C)n(CC)c1C | i | -0.22
44 | CC1CCCN(Cc2nc(Cn3ccn4nc(-c5cccs5)cc4c3=O)no2)C1 (stereo unspecified) | i | -1.2
45 | CC(=O)N1CCCSc2ccc(S(=O)(=O)N(C)C3CCCCC3)cc21 | i | 0.21
46 | Cc1ccc(CN2CCN(C3CCN(C(=O)c4cnccn4)CC3)C(=O)C2=O)cc1 | i | -0.6
47 | Cn1c(=O)c2nc(SCCC(=O)Nc3cc(F)cc(F)c3)n(C)c2n(C)c1=O | i | 0.27
48 | CC(=O)n1nc(-c2cccc(C)c2)nc1N | i | -1
49 | Cc1ccc(-c2cncc(C(=O)NC(C)c3ccc(C)cc3)c2)cc1 (stereo unspecified) | i | 1.1
50 | COc1ccc(-c2nc3nc(CN4CCN(C)CC4)cc(=O)n3[nH]2)cc1 | i | 0.35
51 | O=C1CC(c2ccccc2OCc2ccccc2F)c2cnn(-c3nc4ccccc4s3)c2N1 (stereo unspecified) | i | -1
52 | CCN(Cc1ccccc1)c1ncnc2c1nnn2C | i | -0.09
53 | O=S(=O)(NCCn1c(-c2ccc(F)cc2)nc2cccnc21)c1ccc(Br)cc1 | i | -0.19
54 | Cc1[nH]c(C)c(S(=O)(=O)N2CCC(C(=O)NCc3ccccc3Cl)CC2)c1C(=O)N1CCCC1 | i | -1.7
55 | O=c1nc(SCc2ccccc2Cl)c2c(n1Cc1ccccc1)CCC2 | i | 0.54
56 | Cc1[nH]c2ccccc2c1C(=O)CN1CCOCC1 | i | -0.67
57 | CCc1cccc(Nc2c(CC)c(C)nc3ncnn23)c1 | i | -0.87
58 | COc1ccc(N2CC(NC(=O)C3CC3)CC2=O)cc1 (stereo unspecified) | i | -0.24
59 | Cc1nnc(-c2coc(S(=O)(=O)N3CCN(CC(C)C)CC3)c2)o1 | i | 0.29
60 | Cc1nn(-c2nc3ccc(Br)cc3s2)c2c1C(c1cccc(Cl)c1)CC(=O)N2 (stereo unspecified) | i | 1.6
61 | COC(=O)c1c(NC(=O)c2ccc3c(c2)N(Cc2ccc(Cl)cc2)CCS3)sc(C)c1C | i | -0.08
62 | CC(C)(C)NC(=O)C1(n2cccc2)CCCCC1 | i | 0.88
63 | CC(=O)OC1=CN(C(C)C)S(=O)(=O)c2ccccc21 | i | -0.97
64 | COc1ccc(-c2csc(-c3nc(-c4ccc5c(c4)OCO5)cs3)n2)cc1F | i | 0.28
65 | CCCCNC(=O)CN1C(=O)CC(C)Sc2ccc(S(=O)(=O)N3CCCCC3)cc21 (stereo unspecified) | i | -1.2
66 | CCCNC(=O)CN1C(=O)CSc2ccc(S(=O)(=O)N(CC)CC)cc21 | i | 0.89
67 | O=C1CCS(=O)(=O)N1c1ccc(S(=O)(=O)Nc2ccccc2)cc1 | i | -1
68 | COc1ccc(NC(=O)CC(c2ccc(F)cc2)N2Cc3ccccc3C2=O)cc1OC (stereo unspecified) | i | -1.2
69 | O=S(=O)(c1cccc(Cl)c1)N1CCC2(CC1)Nc1cc(F)ccc1-n1cccc12 | i | -0.49
70 | CCOC(=O)c1cccc(Nc2ccc3cc(S(=O)(=O)N4CCCCC4)ccc3n2)c1 | i | 1
71 | O=S(=O)(c1ccccc1)c1nc(-c2ccccc2)oc1N1CCN(c2ccccc2)CC1 | i | -0.07
72 | CCNc1cc(C)nc(N2CCN(S(=O)(=O)c3ccc(OC)cc3)CC2)n1 | i | 0.22

The list goes on:
# | Structure | Choline anaer gr | Choline anaer gr early
73 | CS(=O)(=O)NCCc1csc(-c2ccc(Cl)cc2)n1 | i | -0.68
74 | CCC(C(=O)N1CCc2ccccc21)n1nc(-c2cc(C)ccc2C)ccc1=O (stereo unspecified) | i | 0.14
75 | Cc1nc(-c2ccc(-n3cc(C(=O)NCc4ccccc4Cl)c(C)n3)cc2)no1 | i | 0.86
76 | CCc1cc(N2CCN(c3ccccc3OC)CC2)n2ncnc2n1 | i | 0.89
77 | COc1ccc(-c2nc(-c3ccc(-c4cccc(Cl)c4)o3)[nH]c2-c2ccc(OC)cc2)cc1 | i | 0.98
78 | O=C(C1CC1)N1CC(OCc2ccc(Cl)cc2)C1 | i | 0.71
79 | Cc1nc(CNC(=O)[C@H]2CCCN2S(=O)(=O)c2cccc(Cl)c2)cs1 | i | -1.7
80 | CCN1C=C(C(=O)OC(C)C)C(C)=NS1(=O)=O | i | 0.99
81 | O=C(NCc1ccccn1)c1nc[nH]c1C(=O)NCc1cccnc1 | i | -1.4
82 | CCNc1nc(N2CCCC2)nc(-n2cnc(SC)n2)n1 | i | 0.88
83 | COc1ccc(C2Nc3ccc(C)cc3[C@H]3OCCC[C@@H]23)cc1O (stereo partly specified) | i | -0.99
84 | CNc1ncnc2c1ncn2[C@H]1C[C@H](OP(=O)(O)O)[C@@H](COP(=O)(O)O)O1 | i | 0.3
85 | Cc1sc(-c2ccno2)cc1S(=O)(=O)N1CCCCC1 | i | -0.81
86 | Cc1cc(C)c(Cn2cccc2CNC(=O)NCC2CCCO2)c(C)c1 (stereo unspecified) | i | 0.23
87 | O=C(Nc1ccccc1)c1ccc2c(c1)OCCCO2 | i | -1.9
88 | CN1CCc2c(sc3c2CN(C(=O)NC2CCCC2)C(c2ccc(Cl)cc2)c2cccn2-3)C1 (stereo unspecified) | i | -0.08
89 | Cc1cccc(-c2cc(N3CCC(C(=O)N4CCCC4)CC3)ncn2)c1 | i | 0.05
90 | Cc1cc(C)c(S(=O)(=O)N2CCCN(c3nc4cccnc4s3)CC2)c(C)c1 | i | 1.6
91 | CN(C)c1oc(-c2ccc(S(=O)(=O)N3CCCC3)cc2)nc1C#N | i | 0.47
92 | O=c1nc(SCc2ccc(Cl)cc2)c2c(n1Cc1ccccc1)CCC2 | i | 1.2
93 | CCCOc1ccc(-c2noc(Cc3nc(-c4ccc(OC)c(OC)c4)cs3)n2)cc1 | i | 1.6
94 | O=C(NCc1noc(C2CCCC2)n1)C1CC1 | i | -0.69
95 | O=C(Cc1ccccc1)Nc1cccc(-c2ccc3ccccc3n2)c1 | i | -0.36
96 | COC(=O)c1cnn2c(C(F)(F)F)cc(-c3ccc(F)cc3)nc12 | i | 0.44
97 | Cc1ccn2c(=O)cc(COc3ccc(NC(=O)Nc4ccc(Cl)cc4)cc3)nc2c1 | i | -0.6
98 | COCCCNC(=O)N1CCCC1c1cc(C(C)C)no1 (stereo unspecified) | i | 0.19
99 | O=C(c1cccc(Nc2ncc(-c3ccc(F)cc3)cn2)c1)N1CCCC1 | i | 0.2
100 | CCOC(=O)c1[nH]c(C)c(CN(Cc2ccc(C)cc2)C(=O)C2CCC2)c1C | i | 0.53
101 | COc1ccc(OCc2nc(CCN(C)C(=O)COc3ccc(F)cc3)no2)cc1 | i | -0.17
102 | COC(=O)c1ccccc1NC(=O)Cn1c2ncccc2c(=O)n1-c1ccccc1 | i | -1.4
103 | Cc1nn(CC(=O)NCc2ccccc2Cl)c(=O)c2nn(-c3ccccc3)c(C)c12 | i | 0.22
104 | CCC(C)NC(=O)c1nc(CS(=O)(=O)c2ccccc2)no1 (stereo unspecified) | i | 0.83
105 | O=C(O)c1cn(-c2ccccc2)c(=O)c2ccccc12 | i | 1.2
106 | COc1ccc(N2CC(NC(=O)c3cc4ccccc4o3)CC2=O)cc1OC (stereo unspecified) | i | -0.62
107 | COc1ccc(-n2ccc(=O)c(-c3nc(-c4ccc(Cl)c(F)c4)no3)n2)cc1 | i | 0.21
108 | CCc1onc(C)c1C1CCCN1S(C)(=O)=O (stereo unspecified) | i | 0.25
109 | COc1ccc(NS(=O)(=O)c2cc(N3C(=O)CCS3(=O)=O)ccc2OC)cc1Cl | i | 0.37
110 | CC(C)C(=O)N1c2nc(C(=O)N3CCOCC3)nn2C2(CCCCC2)[C@@H]2CCCC[C@@H]21 | i | 0.4
111 | CCCCCCCn1c(CN2CCOCC2)nc2ccccc21 | i | -0.27
112 | O=C(Nc1cccc(Cl)c1)N1CCC(n2cnc3cccnc32)CC1 | i | -2.5
113 | COc1ccc(C2C3=C(CC(c4ccccc4)CC3=O)Nc3onc(C)c32)cc1OC (stereo unspecified) | i | -1.2
114 | CN(C)S(=O)(=O)c1ccc(-c2nc(C#N)c(N3CCCC3)o2)cc1 | i | -0.98
115 | O=C(CSc1ccccc1)N1CCN(Cc2cc(=O)n3nc(-c4ccccc4F)sc3n2)CC1 | i | 0.13
116 | Cc1sc(-c2nc(-c3ccc(Cl)cc3)no2)cc1S(=O)(=O)NC1CC1 | i | 0.04
